Screens deposited in PubChem by National Center for Advancing Translational Sciences (NCATS).
TSHR agonist = qHTS Assay for Agonists of the Thyroid Stimulating Hormone Receptor | actives 0.48% (n = 73,000) | HEK293-CNG-TSHR cells (CNG channel as cAMP sensor), membrane potential dye, cAMP | AID 926, 2007 | Thyrotropin receptor (Homo sapiens), P16473 | Potency, µM (top dose mostly 57.1 µM), for the others: top-dose activation, actives largely listed as activators; active = well fitted activation curve of enough size with the parental cells flat; inconclusive = any curve in the parental cells; inactive = parental cells flat and receptor cells flat or falling; further: potency means the concentration at half of the fitted maximal effect; % of control where 0% means no effect; weak receptor curves with flat parental cells got no call and are not listed
Target sequence (P16473 whole entry, looked up): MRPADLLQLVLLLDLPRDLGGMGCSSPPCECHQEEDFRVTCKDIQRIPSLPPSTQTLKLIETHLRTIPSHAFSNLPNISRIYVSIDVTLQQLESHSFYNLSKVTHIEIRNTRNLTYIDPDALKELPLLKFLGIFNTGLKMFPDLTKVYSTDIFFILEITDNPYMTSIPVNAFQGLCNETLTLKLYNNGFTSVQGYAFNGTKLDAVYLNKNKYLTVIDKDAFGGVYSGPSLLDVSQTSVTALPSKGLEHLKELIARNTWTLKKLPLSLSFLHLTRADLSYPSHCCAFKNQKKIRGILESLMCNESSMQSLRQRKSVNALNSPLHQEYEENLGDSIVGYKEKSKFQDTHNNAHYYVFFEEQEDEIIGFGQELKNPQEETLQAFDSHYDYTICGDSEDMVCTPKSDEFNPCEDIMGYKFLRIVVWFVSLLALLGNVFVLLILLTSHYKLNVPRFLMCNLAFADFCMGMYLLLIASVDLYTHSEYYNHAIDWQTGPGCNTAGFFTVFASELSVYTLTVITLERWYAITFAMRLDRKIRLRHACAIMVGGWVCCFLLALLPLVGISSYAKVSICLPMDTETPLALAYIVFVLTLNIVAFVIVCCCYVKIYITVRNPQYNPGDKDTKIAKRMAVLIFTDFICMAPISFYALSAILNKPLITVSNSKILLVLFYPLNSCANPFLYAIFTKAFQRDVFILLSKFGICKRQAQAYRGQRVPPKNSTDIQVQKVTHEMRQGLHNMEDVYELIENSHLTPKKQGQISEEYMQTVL
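HEK 293 cells stably expressing TSHR and a modified CNG channel, with CNG-only parental cells as counterscreen, were preloaded 60 min at room temperature with membrane potential dye containing 100 uM RO 20-1724. Compound exposure was 30 min, and depolarization was read as fluorescence at 590 nm.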
AID923 = qHTS Assay for Allosteric/Competitive Inhibitors of Caspase-1: Spectroscopic Profiling in AFC Spectral Region. Potency, µM (series often up to 57.5 µM), for the others: at the top dose fluorescence increase, most hits filed as activators. actives 1.1% (n = 75,000). compound fluorescence, AFC spectral region (405/520 nm); almost no hit is shown here; active means well fitted activation curve with a large enough effect; inconclusive means small, poorly fitted or top-dose-only effect;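 further: potency means the concentration at half of the fitted maximal effect; 0% is about no effect; scaled to a free AFC standard on each plate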
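Baseline compound fluorescence (AFC region, 405 nm ex/520 nm em) taken from the intercept of kinetic reads with 50 nM caspase-1 and 5 uM Ac-WEHD-AFC; normalized to an on-plate AFC standard curve; compounds titrated up to 57 uM.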
Resorufin autofl = qHTS Assay for Spectroscopic Profiling in Resorufin Spectral Region; Compound fluorescence, resorufin region 547/598 nm, buffer; active compounds read high; max dye-equivalent concentration, M; actives 0.04% (n = 59,000); active = above 10 nM dye equivalent; inconclusive = 1 to 10 nM; inactive = 1 nM or less; a few of its hits are not listed in these tables; further: highest value over a series up to 38 µM
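Compounds in 100 mM Tris buffer, pH 8.0, incubated 15 min at room temperature, then read with 547 nm excitation and 598 nm emission filters. Fluorescence was converted to dye-equivalent concentration using an on-plate six-point resorufin standard curve.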
A488 fluor = qHTS Assay for Spectroscopic Profiling in A488 Spectral Region. compound autofluorescence, A488 spectral region, dye equivalency; active compounds read high. max dye equivalency, M. actives 0.1% (n = 59,000). AID 591, 2007; active = above 10 nM dye equivalent; inconclusive = 1 to 10 nM; inactive = 1 nM or less; about half of its hits are not listed in these tables;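 further: highest value over a series up to 38 µM; compound alone in buffer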
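Spectroscopic profiling in the A488 region: compounds in pH 8.0 Tris (100 mM), 15 min RT, CCD imaging with 480 nm excitation and 540 nm emission; responses normalized against A488 dye standards.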
A647 fluor = qHTS Assay for Spectroscopic Profiling in A647 Spectral Region | 59,000 tested, under 10 active | max dye-equivalent concentration, M | Compound fluorescence, A647 channel (570/671 nm), Tris buffer; active means above 1 µM dye equivalent; inconclusive means 0.1 to 1 µM; inactive means 0.1 µM or less;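 further: values scaled relative to a standard on each plate; highest value over a series up to 38 µM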
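Tris 100 mM pH 8.0; cpd + A647 stds pin-transferred; 15 min RT; CCD imager, ex 570/em 671. Output = A647-equivalent conc. per cpd conc.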
* = called active by the depositor; i = inactive; ? = inconclusive; nt = no result given; [ ] = remark or other dose. Some of the compounds tested; the hit share may differ from the screen's.

Results follow in this order: Resorufin autofl, TSHR agonist, AID923, A647 fluor, A488 fluor
1. Cc1nc(CNS(=O)(=O)c2cc(C)c(C)cc2C)cs1
  i, -3.3%[11.4 µM], 0.0%, 1e-09, i
2. Cc1ccc(/C=C/S(=O)(=O)N2CCC(C(=O)O)CC2)cc1
  i, 5.1%, -1.0%, 2.08e-08, i
3. O=C(c1noc2c1CCCC2)N1CCN(Cc2ccccc2)CC1
  i, 8.7%, -0.7%, 3.2e-09, i
4. O=C(c1ccc(S(=O)(=O)N2CCCCC2)cc1)N1CCCc2ccccc21
  i, 22.8%, 0.1%, 1e-09, i
5. Nc1nnc(SCC(=O)N2CCc3ccccc32)n1-c1ccccc1
  i, 4.2%, -0.1%, 2.19e-08, i
6. COc1ccc(NC(=O)N2CC[C@@]3(CCCN(C(=O)c4csnn4)C3)C2)cc1
  i, 0.7%, -1.2%, 3.2e-09, i
7. COc1ccc(OC)c(N(CC(=O)Nc2cccnc2)S(=O)(=O)c2ccc(OC)c(OC)c2)c1
  i, -11.2%, 2.0%, 1e-09, i
8. O=C(NCCCN1CCOCC1)c1cc2c(=O)[nH]c3ccccc3c2s1
  i, -2.3%, -2.2%, 4.85e-08, i
9. Cc1ccc(C2CC(=O)c3cnc(N4CCN(c5ccccc5)CC4)nc3C2)cc1 (centres undefined)
  i, 18.4%, -1.6%, 5.2e-09, i
10. COc1ccc(CN(Cc2cc3cccc(C)c3[nH]c2=O)C(=O)N(C)C)cc1
  i, -0.9%, -3.0%, 1.37e-08, i
11. CCOC(=O)c1cc(C(=O)OCC)cc(-n2c(C)cc(C(=O)CN3CCOCC3)c2C)c1
  i, 13.6%, 0.1%, 1e-09, i
12. CCOC(=O)c1cccc(NC(=O)CSc2nnc(C3CCCCC3)n2CC)c1
  i, ?, -1.5%, 4e-08, i
13. O=C(Nc1ccccc1OC(F)F)c1ccccc1
  i, 9.7%, 0.1%, 1e-09, i
14. O=C(O)CSCc1ccc(Cl)cc1
  i, 24.4%, -1.9%, 1.12e-08, i
15. COc1ccc(NC(=O)NCCN2CCN(c3cccc(Cl)c3)CC2)cc1
  nt, 6.3%, 0.1%, nt, nt
16. O=S(=O)(O)c1cc(N=[N+]([O-])c2cc(S(=O)(=O)O)c3ccccc3c2)cc2ccccc12
  i, -1.4%[11.4 µM], 0.9%[11.5 µM], 1.8e-09, i
17. O=C(O)c1c(Cl)c(Cl)c(Cl)c(Cl)c1C(=O)Nc1ccc2cn[nH]c2c1
  i, -6.5%[11.4 µM], -1.0%[11.5 µM], 2.14e-08, i
18. CC(=O)c1cccc(NS(=O)(=O)c2c(C)n[nH]c2C)c1
  i, -0.1%, -4.4%, 6e-09, i
19. CCCc1nn(CCc2ccccn2)c(N)c1CC
  i, -12.4%, -0.9%, 5.8e-09, i
20. COc1ccc(CCn2c(-c3ccco3)nc3nc4ccccc4nc32)cc1OC
  i, 2.4%, -0.7%, 1e-09, i
21. CCOc1ccccc1NC(=O)CSc1c(C)n[nH]c1C
  i, 8.3%, 2.0%, 2.48e-08, i
22. COc1ccccc1NCCC(=O)OCC(=O)NCc1ccco1
  i, ?, 0.6%, 3.2e-08, i
23. Cc1cc2c(c(=O)n1CCN(C)C)C(c1ccc(Cl)cc1)C(C#N)=C(N)O2 (centres undefined)
  i, 0.3%, 1.5%, 1e-09, i
24. Cn1c(=O)c2c(n(Cc3ccccc3)c1=O)NC(=O)C2CC(=O)N1CCc2ccccc2C1 (centres undefined)
  i, 2.0%, 0.7%, 1e-09, i
25. CCOC(=O)NCc1ccc2c(c1)OCO2
  i, 1.8%, -0.9%, 1e-09, i
26. COc1ccc(-c2[nH]nc3oc(=O)cc(C)c23)cc1
  i, 14.0%, 0.0%, 1.72e-08, i
27. O=C(Oc1cccc(NC(=O)c2ccco2)c1)c1cccc(S(=O)(=O)N2CCCC2)c1
  i, ?, 0.9%, 5.26e-08, i
28. COc1ccc(C(=O)N2c3ccc(F)cc3CCC2C)cc1OC (centres undefined)
  i, -58.0%[inhibitor], -0.4%, 1e-09, i
29. CCOc1ccccc1NC(=O)C1CCCN(S(=O)(=O)c2c(C)[nH]c(=O)[nH]c2=O)C1 (centres undefined)
  i, 1.1%[11.4 µM], -0.1%, 4.47e-08, i
30. COc1ccc(C2C(C(=O)c3ccc(C)o3)=C(O)C(=O)N2c2cc(C)on2)cc1OC (centres undefined)
  i, 5.3%, 0.5%, 3.1e-09, i
31. COc1ccc(CN(Cc2cc3cc(C)ccc3[nH]c2=O)C(=O)N(C)C)cc1
  i, 13.9%, 0.3%, 2.85e-08, i
32. O=C(CSc1nnc(Cc2cc(=O)[nH]c(=O)[nH]2)n1-c1ccc(Cl)cc1)NC1CCCC1
  nt, 8.6%, -0.8%, nt, nt
33. Cc1ccc(-c2nn(-c3ccccc3)cc2C(=O)N2CCOCC2)cc1
  nt, 3.3%, 1.5%, nt, nt
34. CCCCNC(=O)Oc1cccc(N2CCCC2=O)c1
  nt, 3.2%, 1.5%, nt, nt
35. C=CCN=C1SCC(=O)N1S(=O)(=O)c1ccc(C)cc1
  i, -6.9%, 1.9%, 9.9e-09, i
36. CCOC(=O)Cn1nnnc1CN(Cc1ccc(OC)cc1)Cc1cc2cc(C)ccc2[nH]c1=O
  i, 5.8%, 17.5%, 1.58e-08, i
37. N=C1C(c2nc(-c3ccc(F)cc3)cs2)=C(O)CN1CCCN1CCOCC1
  i, -9.7%, -0.3%, 1.02e-08, i
38. COc1cc(C(=O)Nc2cc(-c3ccccc3)[nH]n2)cc(OC)c1OC
  nt, -11.6%[11.4 µM], 1.6%, nt, nt
39. OC(C#CCN1CCOCC1)c1cccs1 (centres undefined)
  nt, 2.1%, 0.0%, nt, nt
40. N#[N+]c1ccc(Nc2ccccc2)cc1
  i, -1.9%[11.4 µM], -0.9%[11.5 µM], 1e-09, i
41. COc1ccc(-c2noc(-c3cccc(Cl)c3)n2)cc1OC
  i, ?, 2.0%, 3.71e-08, i
42. CCCOc1cccc(C(=O)Nc2cc(NC(=O)c3ccco3)ccc2OC)c1
  i, ?, 0.9%, 6.1e-09, i
43. CCOc1cc(-c2nc(-c3cc(OC)c(OC)c(OC)c3)no2)cc(OCC)c1OCC
  i, 5.0%, -3.0%, 4.44e-08, i
44. Cc1ccccc1OCCCCc1c(C)n[nH]c1C
  nt, ?, 0.4%, nt, nt
45. CCN(Cc1nc2ccccc2c(=O)[nH]1)Cc1nc2cc(OC)c(OC)cc2c(=O)[nH]1
  i, 0.0%, 1.8%, 5.2e-09, i
46. Cc1nnc(NCc2n[nH]c(=O)c3ccccc23)c2ccccc12
  i, nt, nt, 1.6e-09, i
47. CCN(C(=O)c1cc2cccc(OC)c2oc1=O)c1ccccc1
  i, 13.7%, -0.8%, 3.85e-08, i
48. CN1CCN(c2nc(-c3ccncc3)nc3ccccc23)CC1
  i, nt, 1.1%, 1.06e-08, i
49. CCCc1nnc(SCC(=O)N2CCCC2)n1CC1CCCO1 (centres undefined)
  i, 2.2%, 7.1%, 1e-09, i
50. COc1cc2c(cc1OC)C(=O)N(C)CC2
  i, 4.2%, 0.9%, 4.2e-09, i
51. CCC1CCCN1Cn1cnc2c([nH]c3ccc(OC)cc32)c1=O (centres undefined)
  i, -1.5%[11.4 µM], 0.6%, 3.41e-08, i
52. CO[C@H]1COC(=O)C/C=C\[C@@H](C)COC(=O)[C@@H](C)NC(=O)C/C=C\[C@@H]1C
  nt, 3.1%[11.4 µM], -1.0%[11.5 µM], nt, nt
53. O=C(O)C1CCCN1C(=O)Nc1ccccc1 (centres undefined)
  i, -4.6%, -0.3%, 7.7e-09, i
54. C[N+](C)(N)CCC[N+](C)(C)N
  i, 4.1%[11.4 µM], 2.0%[11.5 µM], 2e-09, i
55. Cc1c(NC(=O)c2cc(-c3ccco3)on2)c(=O)n(-c2ccccc2)n1C
  i, 1.8%, 3.4%, 1.86e-08, i
56. CCC(CC)COC(=O)C(C#N)c1nc2ccccc2nc1N1CCOCC1 (centres undefined)
  i, 20.7%, 8.9%, 3.28e-08, i
57. CC1CCc2nc(NC(=O)CN3CCOCC3)sc2C1 (centres undefined)
  i, -3.1%, 3.0%, 1e-09, i
58. O=C(CN1C(=O)c2ccccc2C1=O)Nc1ccc2c(c1)OCO2
  i, -0.2%, 1.9%, 1e-09, i
59. c1ccc(CNc2nc(-c3cccnc3)nc3ccccc23)cc1
  i, ?, 1.6%, 5.2e-09, i
60. O=C(Cn1ccc2ccccc2c1=O)NCCC(=O)NC1CCN(Cc2ccccc2)CC1
  i, -4.8%[11.4 µM], -1.0%, 2.9e-08, i

Given screen by screen: part of the list above
5: Nc1nnc(SCC(=O)N2CCc3ccccc32)n1-c1ccccc1
53: O=C(O)C1CCCN1C(=O)Nc1ccccc1 (centres undefined)
48: CN1CCN(c2nc(-c3ccncc3)nc3ccccc23)CC1
Assay by compound,5,53,48
Resorufin autofl,i,i,i
TSHR agonist,4.2%,-4.6%,nt
AID923,-0.1%,-0.3%,1.1%
A647 fluor,2.19e-08,7.7e-09,1.06e-08
A488 fluor,i,i,i

Next section.
Results follow in this order: Resorufin autofl, TSHR agonist, AID923, A647 fluor, A488 fluor
61. N#Cc1ccccc1Cn1c(=O)n(CCC(=O)NCc2ccco2)c(=O)c2ccccc21
  i, 8.0%, -0.4%, 3.91e-08, i
62. COC(=O)CSc1nsc(SCC(=O)OC)c1C#N
  i, ?, -0.1%, 8.51e-08, i
63. Cc1c(C(=O)Nc2cccc3cccnc23)oc2ccccc12
  i, ?, -0.5%, 4.2e-09, i
64. O=C(O)c1cc(-c2ccc3c(c2)OCO3)nc2ccccc12
  i, 8.2%, -0.3%, 1e-09, i
65. CCOC(=O)C1=C(C)N(C)C(C)=C(C(=O)OCC)C1c1ccccn1
  nt, -3.3%, 0.2%, nt, nt
66. O=C(CCCCCn1c(=S)[nH]c2cc3c(cc2c1=O)OCO3)N1CCN(C(=O)c2ccco2)CC1
  i, -2.5%, 1.3%, 1e-09, i
67. O=C(NCC1COc2ccccc2O1)C1CCN(S(=O)(=O)c2cccc3nsnc23)CC1 (centres undefined)
  i, 4.8%, 0.9%, 1e-09, i
68. CCCSc1nnc2n(-c3ccccc3OC)c(=O)c3c4c(sc3n12)CCC4
  i, nt, nt, 1e-09, i
69. CC(C)C(NCc1c(Cl)cccc1Cl)C(=O)O (centres undefined)
  i, 2.1%, -2.5%, 6.8e-09, i
70. COc1ccc(C(=O)N2CCOCC2)cc1Br
  i, 0.1%, 2.1%, 1e-09, i
71. CCN(CC)S(=O)(=O)c1ccc2c(c1)c(=O)c(C(=O)NCCN(C)CCc1ccccc1)cn2C
  i, ?, -0.9%, 2.51e-08, i
72. CCCCn1c(Oc2ccc(C(=O)OC)cc2)nc2c1c(=O)n(C)c(=O)n2C
  nt, ?, -1.8%, nt, nt
73. CC(C)CC(c1nnnn1CC1CCCO1)N1CCN(C2CCCC2)CC1 (centres undefined)
  i, 6.2%, 0.9%, 1e-09, i
74. O=C(O)C1C2CCC(O2)C1C(=O)Nc1cccc(F)c1 (centres undefined)
  i, 0.0%, 0.3%, 1e-09, i
75. COc1cc(Cl)cc(C#N)c1OCC(=O)O
  i, -10.8%, -0.7%, 2.77e-08, i
76. CCOC(=O)Cc1csc(NC(=O)c2ccc(Br)s2)n1
  i, ?, -1.1%, 1e-09, i
77. COCc1nnc(NC(=O)CCCCCN2C(=O)c3ccccc3C2=O)s1
  i, 18.8%, 0.4%, 3.5e-08, i
78. Nc1ccc(Sc2nnnn2-c2ccccc2)c(Cl)c1
  i, 4.8%, -0.8%, 7.2e-09, i
